Screens from PubChem.
RE007 growth inh: qHTS Assay for Inhibitors of the HIV-1 protein Vpr. S. pombe RE007 Vpr strain, BacTiter-Glo ATP luminescence, 24 h; control for the full effect not named in the record. Potency, µM (doses to about 92.2 µM), for inactives: at the top dose activity change, negative = less growth. AID 651644, 2012. 360,000 tested, 0.21% active; active = well fitted falling curve with a large enough effect; inconclusive = small, poorly fitted or top-dose-only effect; inactive = no such curve, though single readings can be large or run the other way;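 note: % is set by controls: 0 for no effect and ±100 for the full control effect; nearly all actives have a fitted effect of over 50% in size; the assay follows cell death caused by Vpr and the record does not say whether a fall means rescue or toxicity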
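Fission yeast RE007 carrying one integrated HIV-1 vpr copy, seeded at OD 0.01 in PMG+AL medium with 23 nL pinned compound. Grown 24 h at 30 degrees; viability read by BacTiter-Glo luminescence after 5 min.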
StopGo reporter: High Throughput Screening for Foot and Mouth Disease Virus Antivirals; human cells with a luciferase reporter of 2A StopGo recoding; control for the full effect not named in the record; Potency, µM (series often up to 57.9 µM), for inactives: top-dose signal change, negative = less light; 410,000 tested, 1.2% active; active = well fitted falling curve with a large enough effect; inconclusive = small, poorly fitted or top-dose-only effect; inactive = no such curve, though single readings can be large or run the other way; tested in HEK293T cells; note: % is set by controls: 0 for no effect and ±100 for the full control effect; nearly all actives have a fitted effect of over 45% in size; luciferase light after 4 h
SARS PLP yeast: qHTS of Yeast-based Assay for SARS-CoV PLP; S. cerevisiae expressing SARS-CoV PLpro, growth rescue; control for the full effect not named in the record; Potency, µM (titrated, usually from 32.9 µM), without a hit: at the top dose activity, positive = growth rescue; 330,000 tested, 0.19% active; AID 485353, 2010; active means well fitted rising curve with a large enough effect; inconclusive means small, poorly fitted or top-dose-only effect; inactive means no such curve, though single readings can be large or run the other way; note: 0% is about no effect; nearly all actives have a fitted effect of over 55% in size; growth read by luminescence after 48 h
* marks the source's active call; other numbers are inactive results; ? = inconclusive; [ ] = dose if it differs, or a comment. Potency is the fitted concentration of half-maximal effect.

Each structure is followed by: RE007 growth inh	StopGo reporter	SARS PLP yeast
COc1ccc(OC)c(-c2csc(NC(=O)COC(=O)C3CC3)n2)c1
    -28%	-25%	-1%
O=C(O)C(C(O)c1ccc([N+](=O)[O-])cc1)[n+]1ccccc1 (stereo not drawn)
    -21%	-18%	0%
C[C@H]1CN=C(N(C)C)N1CCCCc1ccccc1
    4%	-15%	4%
C[C@H](OC(=O)NCc1ccc(C(F)(F)F)cc1)[C@@H]1O[C@@]2(C)CCC[C@@H]1O2
    -9%	-15%	1%
O=C(CSc1nc2ccccc2c(=O)n1-c1ccccc1Cl)NCC1CCCO1 (stereo not drawn)
    -11%	-20%	3%
O=C(NCCC1=CCCCC1)C1CCN(S(=O)(=O)c2cccc(C(F)(F)F)c2)CC1
    4%	?	-1%
O=C(CN1CCCCC1)c1ccccc1F
    8%	8%	-2%
Nc1c(Cl)nc(-c2ccccc2)nc1Cl
    2%	22%	-2%
CC(C)NC(=S)N/N=C1\CCCc2ccccc21
    -15%	-6%	12%
CC(C)(C)OC(=O)C[C@H]1C/C=C\C[C@@H](CC(=O)N[C@@H](CO)Cc2ccccc2)C(=O)NC[C@@H](c2ccccc2)OC1=O
    8%	-12%	?
COc1ccc(CN(C)C(=O)CCN=C2NS(=O)(=O)c3ccccc32)c(OC)c1
    -9%	13%	2%
Cc1ccccc1OCCC(=O)NNC(=O)c1ccccc1F
    -7%	4%	-2%
COc1ccc(-c2nn(-c3ccccc3)cc2C(=O)NC(=S)N2CCOCC2)cc1OC
    -8%	19%	-11%
CCc1cc(C(=O)N2CCN(S(=O)(=O)c3ccccc3F)CC2)sc1C
    8%	-31%	2%
COc1ccc2nc3oc(C(=O)N4CCC5(CC4)OCCO5)cc3cc2c1
    -9%	33%[activator]	2%
COC1=CC2C3Cc4ccc(OC)c(O)c4C2(CCN3C)CC1=O (stereo not drawn)
    8%	-6%	1%
Nc1ccncc1Cl
    4%	-5%	0%
O=C(NCCCCc1ccccc1)NC[C@@H]1CC[C@@H](Cc2ccc(-c3ccccc3)cc2)O1
    -8%	?	-27%
O=C(C[C@@H]1C/C=C\CCC(=O)O[C@H](c2ccccc2)CNC1=O)N[C@H](CO)Cc1ccccc1
    18%	-11%	10%
Cc1ccc(NC(=O)c2ccccc2OCC(=O)Nc2ccccc2F)cc1S(=O)(=O)N(C)C
    -9%	40%[activator]	-9%
CCN(CC)S(=O)(=O)c1cc(C(=O)OC(C)C(=O)NCc2ccco2)ccc1C (stereo not drawn)
    -6%	-21%	-2%
CCCCNC(=O)CSc1nc(CCC)nc2ccccc12
    16%	0%	-2%
CCCN1C(=O)CC(=O)N=C1SCC(=O)Nc1ccccc1F
    14%	-3%	-1%
CCc1ccc(OCC(=O)OC(C)C(=O)Nc2ccc(Cl)cn2)cc1 (stereo not drawn)
    14%	-11%	-7%
CCOc1ccc([C@@H]2CC=C(C(=O)O)[C@H](c3ccc(Cl)cc3)N2S(=O)(=O)c2ccc(C)cc2)cc1
    16%	-5%	0%
C[C@@H]1C(=O)OC[C@H]1NC(=O)OCc1ccccc1
    -2%	2%	1%
O=C(CN1CCOCC1)N/N=C/c1ccc(C(=O)O)cc1
    -1%	-3%	3%
Cn1nc(C(=O)OCC(=O)Nc2ccc(Cl)cc2Cl)c2ccccc2c1=O
    2%	-1%	6%
CCOc1ccc2oc(C(=O)OCC(=O)NC3CCCCC3)c(C)c2c1
    -8%	-27%	16%
O=C(COC(=O)CNC(=O)c1cccc(OC(F)F)c1)NCc1ccc2c(c1)OCO2
    2%	-8%	-3%

(listing goes on)
Each structure is followed by: RE007 growth inh	StopGo reporter	SARS PLP yeast
COCCN1Cc2cccc(C(=O)Nc3ccc(S(=O)(=O)N4CCOCC4)cc3)c2C1=O
    3%	-2%	2%
O=C(O)c1cc(S(=O)(=O)NCC2COc3ccccc3O2)ccc1Cl (stereo not drawn)
    -13%	-23%	-2%
CC(C)N(C(=O)[C@H]1CC(CC(=O)NCCc2ccccn2)C(=O)N2CCc3c([nH]c4ccccc34)[C@]12C)C(C)C (stereo partly drawn)
    -21%	-19%	0%
COc1cccc(CNC(=O)CCC(=O)N2CCOCC2)c1
    8%	-13%	-1%
CCOC(=O)C1CCCN(c2oc(-c3ccc(OC)cc3)nc2C#N)C1 (stereo not drawn)
    1%	16%	-3%
Cc1ccc(-c2csc(NC(=O)c3cccc([N+](=O)[O-])c3C(=O)O)n2)cc1
    5%	15%	1%
CCc1cc2cc(C)cc(C)c2[nH]c1=S
    33%	-8%	2%
CCOC(=O)[C@H]1[C@H]2COc3cc(OC)ccc3[C@@H]2N2C(=O)c3cc(OC)c(OC)cc3NC(=O)[C@@]12C
    -9%	-15%	1%
CN(C)C(=O)COC(=O)c1cccc(S(=O)(=O)N2CC3(C)CC2CC(C)(C)C3)c1 (stereo not drawn)
    1%	-16%	-1%
O=C(NCCc1ccccn1)c1c(-c2ccsc2)sc2ccccc12
    -16%	-16%	-4%
CCCCNc1c(-c2ccc(Sc3ccc(OC)cc3)cc2)nc2cc(C)ccn12
    -10%	?	-8%
CCN(CC)C(=O)c1[nH]cnc1C(=O)N[C@H](C)c1ccccc1
    -6%	1%	-8%
Cc1noc(C)c1C(=O)Nc1cc(Cl)ccc1N1CCOCC1
    13%	-24%	-10%
S=C(Cc1ccccc1)NCCc1ccccc1
    8%	35%[activator]	-22%
C[C@H](CO)N1C[C@H](C)[C@@H](CN(C)C(=O)Nc2ccc3c(c2)OCO3)Oc2c(cccc2N(C)C)C1=O
    -10%	40%[activator]	1%
CCN1CCCc2cc(CN(CCN3CCOCC3)C(=S)Nc3ccc(OC)cc3)ccc21
    -6%	16%	-2%
CC(=O)Nc1ccc(S(=O)(=O)N[C@@H](C)C(=O)OCC(=O)c2ccc(C)cc2)cc1
    5%	-9%	-4%
CC(C)(C)n1ncc2c(=O)n(Cc3cccc(Cl)c3)cnc21
    -15%	-29%	-9%
N#C[C@@H]1N(Cc2ccccc2)C(=O)[C@H]2CC3C=CC21O3 (stereo partly drawn)
    -16%	-11%	-7%
O=C(COC(=O)c1cccc(S(=O)(=O)N2CCOCC2)c1)Nc1ncc(Cl)cc1Cl
    0%	-21%	-1%
O=C(c1ccccc1)c1cccc(C(=O)c2ccccc2)c1
    -1%	19%	-9%
CCC(C)c1ccc(NC(=O)CN(C)CC(=O)Nc2cccc(OC)c2)cc1 (stereo not drawn)
    11%	13%	-20%
COc1cc(CCCN2CCNC[C@@H]2c2ccccc2)cc(OC)c1OC
    -5%	5%	7%
C[n+]1ccccc1C1CCCC/C1=N\NC(N)=S (stereo not drawn)
    -5%	-19%	0%
O=S(=O)(Nc1ccccc1F)c1cccc(NC(=S)NCCN2CCOCC2)c1
    -21%	13%	3%
CN(CC(=O)Nc1cccc(F)c1)CC(=O)N1CCCCC1
    1%	3%	-2%
Cc1cc(Cl)ccc1OCC(=O)OCC(=O)c1c(N)n(C)c(=O)n(C)c1=O
    -16%	-19%	-2%
CCC(=O)c1ccc(OCC(=O)OCC(=O)Nc2cccc(S(=O)(=O)N3CCCC3)c2)cc1
    7%	-19%	-10%
CC1CCC(NC(=O)CSc2ccc(S(=O)(=O)N(C)C)cn2)CC1 (stereo not drawn)
    7%	-24%	1%
CC(C)N1C(=O)C(=O)N(CC(=O)N(C)c2ccccc2)C1=O
    -18%	-23%	0%

Additional results:
smiles	RE007 growth inh	StopGo reporter	SARS PLP yeast
COc1ccc(S(=O)(=O)N(C)C)cc1NC(=O)COC(=O)Cn1cnc2ccccc2c1=O	4%	-3%	1%
C=CCN(C(=O)COC(=O)c1cc[n+]([O-])cc1)c1nc(-c2ccccc2)cs1	8%	40%[activator]	-1%
O=C(CCC(=O)c1cccs1)NNC(=O)c1ccccc1Cl	10%	-14%	-7%
O=C(O)c1ccccc1C(=O)NNc1ccc(F)cc1F	38%	-4%	0%
C=CC[C@H](CC(=O)NCCO)C(=O)N[C@H](COC(=O)[C@H](CC=C)CC(=O)OC(C)(C)C)Cc1c[nH]c2ccccc12	1%	-14%	4%
CCOc1ccc(Oc2ccc(S(=O)(=O)N3CCOCC3)cc2N)cc1	1%	?	-3%
CC(=O)c1ccc(N2CCN(C(=O)c3ccc4ccccc4n3)CC2)cc1	11%	9%	1%
CCOC(=O)C1=C(COC(=O)Cc2ccc(OC)c(OC)c2)NC(=O)NC1C (stereo not drawn)	8%	-25%	2%
N#Cc1ccc(C(=O)NC(=S)N2CCOCC2)cc1	-5%	-10%	0%
Cc1nnc(SCC(=O)Nc2sc3c(c2C(N)=O)CCC(C)C3)[nH]c1=O (stereo not drawn)	-4%	-23%	-5%
COc1cc(C(=O)OCCCc2cc3ccccc3c(=O)o2)cc(OC)c1OC	-6%	-11%	-27%
COCCCNC(=O)C[C@H]1C[C@H](C(=O)N2CCOCC2)[C@@]2(C)c3[nH]c4cc(-c5ccco5)ccc4c3CCN2C1=O	1%	-27%	-13%
COc1ccc(OC)c(CN2CCC(CNC(=O)Nc3cccc(Cl)c3)CC2)c1	4%	?	0%
COc1ccc(C(=O)C(=O)c2ccc(OCCO)cc2)cc1	13%	6%	0%
Cc1ccc(NC(=O)COc2ccc(N(C)C(=O)C(C)(C)C)cc2)cc1S(=O)(=O)N1CCCCC1	1%	?	-2%
CN(Cc1ccc(Cl)c(Cl)c1)C(=O)C1=CC=CN2CCS(=O)(=O)N=C12	-28%	-9%	-3%
CCOc1[nH]n(-c2ccc(Cl)cc2)c(=O)c1C=NCc1cccnc1	11%	15%	-4%
CCCn1c(N)c(C(=O)CN(C)CC(=O)Nc2cccc(F)c2)c(=O)[nH]c1=O	7%	-25%	2%
[O-]c1ccccc1-[n+]1c(-c2ccccc2)cc(-c2ccccc2)cc1-c1ccccc1	0%	28µM*	-26%
C#CCC(NC(=O)c1ccc(C#N)cc1)C(=O)NCCC (stereo not drawn)	-3%	0%	2%
CCC(C)Sc1ccc([C@@H]2[C@H]3C(=O)N(CC)C(=O)[C@H]3[C@]3(C(=O)OC)CCCCN23)cc1 (stereo partly drawn)	15%	?	-1%
CCN1CCN(C(=O)c2ccc3c(c2)S(=O)(=O)c2ccccc2C3=O)CC1	1%	5%	-2%
CC(NC(=O)c1ccc(NC(=O)CC2SC(N3CCCC3)=NC2=O)cc1)c1ccccc1 (stereo not drawn)	8%	-12%	0%
O=C(Nc1ccc(F)cc1F)C1CC(=O)N(Cc2ccccc2)C1 (stereo not drawn)	-18%	-24%	2%
Cc1ccccc1C(=O)N1CCC(C(=O)Nc2ccc(S(=O)(=O)N3CCOCC3)cc2)CC1	-3%	-19%	6%
Cc1ccc(C(=O)OC(C)C(=O)Nc2ccc3c(c2)OCO3)c(O)c1 (stereo not drawn)	-3%	16%	-4%
CC(=O)c1ccc(S(=O)(=O)Nc2ccc(C(=O)NCCCn3ccnc3)cc2)cc1	-1%	2%	-4%
CC[C@@]1(C(=O)OC)N[C@H](CN(C)S(=O)(=O)c2ccccc2)[C@@H]2C(=O)N(C)C(=O)[C@@H]21	2%	-20%	4%
C#CCOC(=O)C[N+](C)(C)CC#Cc1ccccc1	-11%	-12%	4%
CC(NC(=O)CN1C(=O)NC(c2ccccc2)(c2ccccc2)C1=O)c1cccs1 (stereo not drawn)	-6%	0%	4%

New compounds follow
smiles	RE007 growth inh	StopGo reporter	SARS PLP yeast
COc1ccc(/C=C(/C(=O)N2CCCCC2C(=O)O)c2ccc(OC)c(OC)c2)cc1 (stereo not drawn)	-10%	-11%	4%
CC1CCC(NC(=O)CN2C(=O)C3CC=CCC3C2=O)CC1 (stereo not drawn)	-6%	11%	-3%
Cc1ccc(/C=C(\C#N)C(=O)NCc2ccco2)o1	10%	20%	0%
Cc1cc(SC2CCOC2=O)nc2ccccc12 (stereo not drawn)	-3%	-17%	1%
CCc1ccc(C(=O)CN2C(=O)NC3(CCc4ccccc43)C2=O)cc1 (stereo not drawn)	1%	-11%	-4%

Grouped by structure: those above with two or more sulfur atoms
smiles	RE007 growth inh	StopGo reporter	SARS PLP yeast
CCc1cc(C(=O)N2CCN(S(=O)(=O)c3ccccc3F)CC2)sc1C	8%	-31%	2%
O=C(NCCc1ccccn1)c1c(-c2ccsc2)sc2ccccc12	-16%	-16%	-4%
O=S(=O)(Nc1ccccc1F)c1cccc(NC(=S)NCCN2CCOCC2)c1	-21%	13%	3%
CC1CCC(NC(=O)CSc2ccc(S(=O)(=O)N(C)C)cn2)CC1 (stereo not drawn)	7%	-24%	1%
Cc1nnc(SCC(=O)Nc2sc3c(c2C(N)=O)CCC(C)C3)[nH]c1=O (stereo not drawn)	-4%	-23%	-5%

Some of the compounds tested; rates above refer to the full screens.
